# Compound activity (PubChem BioAssay)
# GIRK2 activ: GIRK2 channel activation; HEK293-GIRK2 thallium flux, Thallos fluorescence; calls only for hits at 25 µM; 63,000 compounds, 0.05% hits;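 active = among the strongest 0.2% of first-round signals and kept after retests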;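 note: first round at about 10 µM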
# Target sequence (P48051 whole entry, looked up): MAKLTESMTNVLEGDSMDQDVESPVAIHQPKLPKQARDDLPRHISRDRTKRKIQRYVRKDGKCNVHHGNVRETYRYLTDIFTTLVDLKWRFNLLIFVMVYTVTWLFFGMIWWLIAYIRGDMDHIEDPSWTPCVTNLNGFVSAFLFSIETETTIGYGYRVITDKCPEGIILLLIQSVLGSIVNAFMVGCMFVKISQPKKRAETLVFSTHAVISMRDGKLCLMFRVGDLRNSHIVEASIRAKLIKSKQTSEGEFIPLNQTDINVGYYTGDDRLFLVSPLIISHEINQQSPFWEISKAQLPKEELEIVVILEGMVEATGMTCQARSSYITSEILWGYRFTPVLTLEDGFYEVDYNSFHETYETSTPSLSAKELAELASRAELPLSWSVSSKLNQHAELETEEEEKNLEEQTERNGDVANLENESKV
# Calls only; i = inactive. An excerpt, so the mix of outcomes need not match the whole.
# Start of the listing, in advance (two entries):
Structure	GIRK2 activ
C/C=C/c1ccc(OCC(O)CN2CCN(c3ccc(F)cc3)CC2)c(OC)c1 (centres undefined)	i
COCCCn1c(SCc2nc(-c3ccccc3C)oc2C)nc2ccccc2c1=O	i

# The listing, previewed entries included:
Structure	GIRK2 activ
C/C=C/c1ccc(OCC(O)CN2CCN(c3ccc(F)cc3)CC2)c(OC)c1 (centres undefined)	i
COCCCn1c(SCc2nc(-c3ccccc3C)oc2C)nc2ccccc2c1=O	i
Cc1nc(N2CCN(C(=O)/C=C/c3ccccc3)CC2)cc(-n2cccc2)n1	i
Cc1nc(Nc2ccccn2)cc(N2CCN(C(=O)/C=C/c3ccco3)CC2)n1	i
Cc1nnc(C2CCCN(C(=O)c3cc4ccccc4[nH]3)C2)s1 (centres undefined)	i
Cc1cc(C)nc(Nc2nc(C(=O)Nc3cccc(NS(C)(=O)=O)c3)cs2)n1	i
Cn1c(=O)c2c(N3CCOCC3)ccnc2n(C)c1=O	i
O=C(Nc1ccc(-c2nc3ccccc3[nH]2)cc1)C1CCN(S(=O)(=O)c2ccc(Cl)cc2)CC1	i
COc1cc(NC(=O)COc2ccc(C)cc2)ccc1N1CCCCC1=O	i
COCCn1cc(NC(=O)N2c3ccccc3CC2C)c2ccccc21 (centres undefined)	i
Cc1cc(C)c(S(=O)(=O)NCCn2cnc(-c3ccccc3)cc2=O)cc1C	i
CC(C(=O)NCc1nc2ccccc2[nH]1)n1nc(-c2ccc(F)cc2)ccc1=O (centres undefined)	i
CS(=O)(=O)CCNCc1ccc(-c2ccc3ncnc(Nc4ccc(OCc5ccccc5)c(Cl)c4)c3c2)o1	i
Cc1cc(NC(=O)c2nnn(-c3ccc(Br)cc3)n2)c2ccccc2n1	i
CCN(Cc1ccccc1)C(=O)C1CCCN(c2ccc(-c3ccc(F)cc3)nn2)C1 (centres undefined)	i
O=C(c1cc2ccccc2o1)N(CCc1cccs1)Cc1ccoc1	i
Cc1cc(C)c(NC(=O)C(=O)NCCN2CCN(c3ccccc3)CC2)c(C)c1	i
COc1ccc(-c2noc(-c3ccc4c(=O)n(Cc5ccc(F)cc5)c(=O)[nH]c4c3)n2)cc1OC	i
CCOc1cccc(-c2noc(CSc3nc(C)c(Cc4ccccc4)c(=O)[nH]3)n2)c1	i
CS(=O)(=O)c1ccc2nc(N(CCN3CCOCC3)C(=O)c3ccco3)sc2c1	i
O=C(NCCN1CCN(c2ccc(F)cc2)CC1)c1ccc(F)cc1	i
O=C(NC1CCN(C(=O)c2cc(-c3ccc(F)cc3)n[nH]2)CC1)c1cccc(F)c1	i
CCN(C1CCCCC1)S(=O)(=O)c1cc(Br)ccc1OC	i
O=C(Oc1ccc2c(=O)c(-c3ccc4c(c3)OCCO4)coc2c1)C1CCCCC1	i
Cc1oc2cc(OCC(=O)c3ccc(F)cc3)ccc2c(=O)c1-c1ccccc1	i
COc1ccc(NC(=O)CC2C(=O)N(c3ccccc3)C(=S)N2NC(=O)c2ccccc2)cc1 (centres undefined)	i
C=CCn1c(N2CCN(CC(=O)OCc3ccccc3)CC2)nc2c1c(=O)[nH]c(=O)n2C	i
CCOc1ccc(-c2nc(CSc3nc4ccccc4c(=O)n3CCCOC)c(C)o2)cc1	i
COCCn1c(SC)nc2c1c(=O)n(C)c(=O)n2C	i
COC(=O)c1ccc2c(=O)n(CCC(=O)NCc3ccccc3Cl)c(=S)[nH]c2c1	i

# A different layout for part of the listing above.
GIRK2 activ	structure
i	C=CCn1c(N2CCN(CC(=O)OCc3ccccc3)CC2)nc2c1c(=O)[nH]c(=O)n2C
i	CCOc1ccc(-c2nc(CSc3nc4ccccc4c(=O)n3CCCOC)c(C)o2)cc1

# (next part)
Structure	GIRK2 activ
NS(=O)(=O)c1ccc(CCNC(=O)c2cc(-c3ccc(F)cc3)c[nH]2)cc1	i
CCOc1ccccc1NC(=O)Cn1cnc2c(-c3ccc(F)cc3)csc2c1=O	i
CC(=O)Cn1c(=O)c2c(nc3n(-c4ccc(C(F)(F)F)cc4)c(C)cn23)n(C)c1=O	i
Cn1nc(C2CCN(C(=O)c3cccs3)CC2)n(-c2ccccc2)c1=O	i
COc1ccc2nc(N(CCN3CCOCC3)C(=O)c3ccc(N4C(=O)CCC4=O)cc3)sc2c1	i
CCCCCC(O)/C=C/[C@H]1C(O)CC(O)C1C/C=C\CCCCCC(=O)O (some centres undefined)	i
NC(=O)CC12CC3CC(C1)CC(c1ccccc1)(C3)C2	i
COc1ccc(S(=O)(=O)N2CCN=C2SCc2cccc(Cl)c2)cc1	i
COc1ccccc1OCC(=O)N(CC1CCCO1)c1nc2c(C)ccc(Cl)c2s1 (centres undefined)	i
O=C(NCCC1=CCCCC1)C(=O)Nc1ccc(OC(F)(F)F)cc1	i
COCCCN1COc2ccc3c(=O)c(-c4ccccc4OC)coc3c2C1	i
CC(=O)Cn1c(=O)c2c(nc3n(-c4ccccc4C)c(C)c(C)n23)n(C)c1=O	i
CCOc1ccccc1NC(=O)C(=O)NCc1cccs1	i
CCC1CCCCN1C(=O)c1cnc2nc(C)ccc2c1Nc1cccc(C(C)=O)c1 (centres undefined)	i
O=C(Nc1nnc(-c2cc(Cl)sc2Cl)o1)Nc1cccs1	i
CC1CCN(c2nc3c(c(=O)[nH]c(=O)n3C)n2CC(O)c2ccccc2)CC1 (centres undefined)	i
O=C(c1cccc(-n2cnnn2)c1)N1CCCC(c2nnc(-c3ccccc3F)s2)C1 (centres undefined)	i
Cc1oc(-c2cccc(C(F)(F)F)c2)cc1C(=O)Nc1ccc(S(N)(=O)=O)cc1	i
CSc1ccccc1NC(=O)c1ccc(S(C)(=O)=O)cc1	i
CCOC(=O)c1cn(Cc2ccc(Cl)cc2)nc1S(=O)(=O)N1CCCCC1	i
COC(=O)c1cc(OC)c(OC)cc1Nc1nc2ccccc2nc1NS(C)(=O)=O	i
Cn1c(N2CCCCCC2)nc2c1c(=O)n(Cc1ccc(Cl)cc1)c(=O)n2C	i
O=C1Nc2ccc(Cl)cc2[C@@](C#CC2CC2)(C(F)(F)F)O1	i
O=C(/C=C/c1ccc2c(c1)OCO2)Nc1ccc(CC(=O)N2CCOCC2)cc1	i
O=c1c2nnn(Cc3ccccc3)c2ncn1Cc1nc(-c2cccc(Cl)c2)no1	i
CC(C)(Oc1ccc(Cl)cc1)C(=O)N(Cc1ccoc1)Cc1cccs1	i
NS(=O)(=O)c1ccc(-n2nc(C(F)(F)F)cc2-c2ccc(I)cc2)cc1	i
NC(=O)C1CCN(c2ncc3c(=O)n(C4CCCC4)c(=O)[nH]c3n2)CC1	i
CC(C)Oc1ccc(C(=O)N2C3CCCC2COC3)cc1	i
CCC(C)OC(=O)C1=C(C)NC2=C(C(=O)C(C(=O)OC)C(C)C2)C1c1ccc(C)c([N+](=O)[O-])c1 (centres undefined)	i
O=C(CCCS(=O)(=O)Cc1ccccc1)Nc1ccc(F)cc1	i
Cc1cccc2sc(OC3CCN(C(=O)c4cccc(Br)c4)CC3)nc12	i
Cc1ccc(NC(=O)c2ccc(S(=O)(=O)N3CCCCC3)cc2)c(C)c1	i
CCOc1ccc(S(=O)(=O)NCCN2CCN(c3ccc(Cl)cc3)CC2)cc1	i
COc1cc(C(=O)NCC2(c3ccc(F)cc3)CC2)cc(OC)c1OC	i
O=C(CSc1nnc(-c2ccc(S(=O)(=O)N3CCCCCC3)cc2)o1)c1ccc(F)cc1	i
O=C(NCC1CCN(C(=O)Nc2ccc(F)cc2)CC1)c1ccc(OC(F)(F)F)cc1	i
Cc1nc(-c2nnc(NC(=O)C3CCCN3S(=O)(=O)c3cccs3)o2)cs1 (centres undefined)	i
CS(=O)(=O)N1CCC(c2nnc(C3CC3)s2)CC1	i
Cn1c(=O)c2cc(C(=O)Nc3ccc(F)c(Cl)c3)n(Cc3ccccc3)c2n(C)c1=O	i
O=C(Nc1ccccc1F)N1CCN(c2ccc(-c3ccc(F)cc3)nn2)CC1	i
COCCn1c(=O)c2c(nc(-n3nc(C)cc3C)n2Cc2ccc(C)cc2)n(C)c1=O	i
C=CCNC(=O)N1CCN(Cc2nc3ccccc3n2Cc2ccccc2)CC1	i
Cc1cc(NC(=O)C(C)C)n(-c2nc(-c3ccc4c(c3)OCO4)cs2)n1	i
COc1ccc(NC(=O)Cn2nc3ccc(-c4ccc(Cl)cc4)nn3c2=O)cc1OC	i
COc1ccc(NC(=O)CC2(CC3=NS(=O)(=O)c4ccccc4N3)CCCC2)c(OC)c1	i
Cc1cc2oc(=O)cc(CN3CCN(C)CC3)c2cc1Cl	i
COC(=O)N1CCN(CCNC(=O)C2c3ccccc3Oc3ccccc32)CC1	i
CC(C)CCNC(=O)CCCCn1c(=O)c2ccccc2n(CC(=O)Nc2ccccc2)c1=O	i
Cc1cc2ncn(CC3CCN(Cc4ccccn4)CC3)c2cc1C	i
COc1ccccc1-c1csc(-c2nnn(-c3cccc(Cl)c3)c2N)n1	i
COc1ccc(Cl)cc1C(=O)NCc1cc(-c2ccco2)n(C)n1	i
CN(c1ccccc1)c1nnc(-c2ccc(NC(=O)c3ccco3)cc2)s1	i
CCn1cc(C(=O)NCCc2ccc(Cl)cc2)c(S(=O)(=O)N2CCCCC2)n1	i
COc1cc(/C=C2\Oc3c(ccc4c3CN(CCN3CCOCC3)CO4)C2=O)cc(OC)c1OC	i
O=C(c1cc2ccccc2[nH]1)N1CCN(C(=O)C2CC2c2ccc(F)cc2)CC1 (centres undefined)	i
COc1ccc(Cl)cc1NC(=O)N1CC(c2nc(-c3cccs3)no2)C1	i
O=C(c1c2c(nn1C1CCS(=O)(=O)C1)CCC2)N1CCN(c2cccc(Cl)c2)CC1 (centres undefined)	i
O=C(CSc1nnc(-c2ccncc2)o1)Nc1cccc(Cl)c1	i
O=C(NCCc1ccccc1)C(=O)NCCc1ccoc1	i

# Continued:
Structure	GIRK2 activ
Cc1ccnc(Nc2cc(NCCNC(=O)C(C)(C)C)nc(C)n2)c1	i
N#CCn1nc(-c2ccc(Br)cc2)ccc1=O	i
COC(=O)c1sccc1S(=O)(=O)N(CC(=O)Nc1ccc(OC)cc1)c1ccc(C)c(C)c1	i
Cc1cc(NC(=O)C2CCCN(c3ccc(-c4ccc(Cl)cc4)nn3)C2)no1 (centres undefined)	i
CC(C)C(=O)Nc1nsc(-c2ccc(Cl)cc2)n1	i
Cc1nn(-c2ccccc2)c(C)c1N1CCN(C(=O)c2cncc(Br)c2)CC1	i
Cn1c(SCc2nc(-c3cccc(Cl)c3)no2)nc2cc3c(cc2c1=O)OCO3	i
O=C1/C(=C/c2ccc3c(c2)OCO3)Oc2c1ccc1c2CN(Cc2ccccn2)CO1	i
COc1ccc(NC(=O)CSc2nc3cc(-c4ccccc4)sc3c(=O)n2C)cc1OC	i
COc1cc(OC)c(NC(=O)Cn2ncc3c(c2=O)N(C)C(=O)CS3)cc1Cl	i
COc1cccc(OCC(=O)Nc2cc(C3CC3)nn2-c2nc3c(c(=O)[nH]2)CCCC3)c1	i
Cc1cc2c(=O)n(Cc3ccco3)c(SCC(=O)O)nc2s1	i
O=C(CSc1nccc(N2CCCCC2)n1)Nc1ccc(Cl)cc1F	i
CCc1c(C)nc2n(c1=O)CC(C(=O)N1CCN(C(=O)c3ccco3)CC1)CS2 (centres undefined)	i
O=C(CCCn1c(=O)[nH]c2ccccc2c1=O)N1CC=C(c2ccccc2)CC1	i
N=C1SC(c2ccccc2)CC(=O)N1c1ccccc1 (centres undefined)	i
Cn1c(SCC(=O)c2ccc(Cl)cc2)nnc1-c1cccc(S(=O)(=O)N2CCCCC2)c1	i
CN(CC(=O)NC1CC1)c1nc2c(Cl)cccc2s1	i
Cn1nc(-c2ccccc2)cc1C(=O)N1CCN(CCn2ccnc2-c2ccccc2)CC1	i
COc1ccc(-c2ccc(S(=O)(=O)NC(CCSC)C(=O)O)cc2)cc1 (centres undefined)	i
O=C(c1csc(-c2cc3ccccc3[nH]2)n1)N1CCC(O)CC1	i
CCOc1ccc(NC(=O)Cn2cc(C(=O)c3ccc(OCC)cc3)c(=O)c3cc(F)ccc32)cc1	i
Cc1cc(CCNC(=O)COc2cccc3c2OC(C)(C)C3)on1	i
CCCCCn1c(=O)c2c(nc3n2CC(C)CN3c2ccccc2OC)n(C)c1=O (centres undefined)	i
Cc1nc(-c2ccccc2)cc2nn(CC(=O)Nc3ccc4c(c3)OCO4)c(=O)n12	i
O=C(CSc1ccc(F)cc1)NCc1ccsc1	i
COC(=O)c1ccc(C2C(S(=O)(=O)c3ccc(C)cc3)=C(O)C(=O)N2c2ccc(F)cc2)cc1 (centres undefined)	i
COc1ccc(CCC(=O)Nc2ccc(Cn3cnc(C(=O)Nc4ccc(C)cc4C)c3)cc2)cc1	i
COc1ccccc1-c1cncnc1-c1ccc(OCc2ccccc2)cc1O	i
O=C(CC(c1ccccc1)c1ccccc1)N1CCN(Cc2nc(C3CC3)cs2)CC1	i
CCOc1ccc(-c2cc(C(=O)N3CCC(NC(=O)CC4CCCCC4)CC3)[nH]n2)cc1	i
C#CCCNC(=O)CNC(=O)OC(C)(C)C	i
CCOC(=O)C(=O)NCc1n[nH]c(=O)c2ccccc12	i
COCCn1c(=O)c2c(nc3n2CCCN3c2cccc(OC)c2)n(C)c1=O	i
COCCN(Cc1ccsc1)C(=O)c1cc(C(F)(F)F)cc(C(F)(F)F)c1	i
Cc1[nH]c(=O)[nH]c(=O)c1CCc1nnc(SCc2nc3ccccc3[nH]2)o1	i

# Given with values ahead of the structure: entries from further up.
GIRK2 activ	canonical_smiles
i	CC(=O)Cn1c(=O)c2c(nc3n(-c4ccc(C(F)(F)F)cc4)c(C)cn23)n(C)c1=O
i	Cn1nc(C2CCN(C(=O)c3cccs3)CC2)n(-c2ccccc2)c1=O
i	COc1ccc2nc(N(CCN3CCOCC3)C(=O)c3ccc(N4C(=O)CCC4=O)cc3)sc2c1
i	CCCCCC(O)/C=C/[C@H]1C(O)CC(O)C1C/C=C\CCCCCC(=O)O (some centres undefined)
